ERG Ets-DNA blk = ERG Ets/DNA interaction inhibition | Potency, µM (top dose mostly 76.9 µM), for the others: top-dose FP activity, negative = inhibition, actives largely listed as inhibitors | P11308 | 370,000 tested, 0.028% active | AID 624246 | fluorescence polarization, His-ERG Ets domain / labelled DNA; active = well fitted inhibition curve with a large enough effect in the polarisation, with a control signal flat; inconclusive = small, poorly fitted or top-dose-only effect, or effect the other way, or a change in a side signal; inactive = no such curve, though single readings can be large or run the other way; the % refers to the polarisation;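 also: polarization taken with two DNA probes labelled with fluorescein and Texas red; potency is read from the fitted curve at half-maximal effect; % of control where 0% means no effect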
Target sequence (P11308 whole entry, looked up, the tested form may be a part): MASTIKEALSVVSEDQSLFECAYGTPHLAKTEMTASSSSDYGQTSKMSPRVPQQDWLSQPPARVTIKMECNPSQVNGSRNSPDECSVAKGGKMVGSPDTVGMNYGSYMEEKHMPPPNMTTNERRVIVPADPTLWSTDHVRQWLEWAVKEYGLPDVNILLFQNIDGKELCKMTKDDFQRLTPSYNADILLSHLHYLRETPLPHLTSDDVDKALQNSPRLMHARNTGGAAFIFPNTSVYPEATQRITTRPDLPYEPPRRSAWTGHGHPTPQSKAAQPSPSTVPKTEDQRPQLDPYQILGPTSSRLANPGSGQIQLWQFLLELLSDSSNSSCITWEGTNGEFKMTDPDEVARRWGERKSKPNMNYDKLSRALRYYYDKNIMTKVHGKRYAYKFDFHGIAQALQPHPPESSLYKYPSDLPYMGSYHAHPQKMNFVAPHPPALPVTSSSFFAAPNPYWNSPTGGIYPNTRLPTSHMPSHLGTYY
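His-tagged ERG Ets domain (1 uM in the protein solution; 300mM KCl, 50mM Tris-HCl, 1mM EDTA, 1mM DTT, pH 7.5) received compound, then a probe mix of 5 nM fluorescein-DNA and 100nM Texas-615-DNA. Fluorescence polarization was read for both dyes.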
ALOX12 inh = inhibitors of human 12S-lipoxygenase ALOX12. 580,000 tested, 1.1% active. P18054. Potency, µM (highest dose often 108 µM), for inactives: at the highest dose activity change, negative = inhibition, actives largely listed as inhibitors. purified 12hLO, xylenol orange hydroperoxide absorbance; also: potency is read from the fitted curve at half-maximal effect; % is scaled to controls: 0 for no effect and ±100 for the full control effect
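Hydroperoxide product was detected by ferrous iron/xylenol orange as the 573 to 405 nm absorbance ratio. Arachidonic acid at 40 uM (final) was turned over for 30 min at room temperature by 150 nM human 12hLO, pH 7.0 Hepes buffer, after 15 min compound preincubation.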
LDHA inh = inhibitors of human lactate dehydrogenase A; purified LDHA, NADH/diaphorase-resazurin fluorescence; hits give low values; activity change, % (values are at about 110 or 230 µM); P00338; AID 1347041; 480,000 tested, 0.15% active; in the data active = activity change below about -30%; inconclusive = mostly about -25% to -30%;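 also: plate controls were DMSO wells for no effect and wells without enzyme for full effect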
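Resorufin fluorescence (ex540/em590), read at 0 and 20 min after diaphorase/resazurin addition, reports the NADH left after a 5 min room-temperature reaction of 2 nM human LDH5 with 0.06 mM NADH and 0.2 mM pyruvate.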
Apoferritin bind = binds horse apoferritin like a general anesthetic. P02791. apoferritin/1-aminoanthracene competitive binding, fluorescence. Potency, µM (top dose mostly 77.5 µM), inactives show at the top dose activity change, negative = displacement, actives largely listed as inhibitors. 350,000 tested, 0.074% active; also: potency is read from the fitted curve at half-maximal effect; % is scaled to controls: 0 for no effect and ±100 for the full control effect; nearly all actives have a fitted effect of over 20% in size
Target sequence (P02791 2-175 limits assumed): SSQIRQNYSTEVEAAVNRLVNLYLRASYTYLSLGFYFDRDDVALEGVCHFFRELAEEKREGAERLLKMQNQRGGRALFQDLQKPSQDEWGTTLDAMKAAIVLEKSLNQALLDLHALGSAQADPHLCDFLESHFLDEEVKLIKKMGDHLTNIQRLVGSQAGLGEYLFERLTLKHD
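Steps: apoferritin (10 uM) was premixed with half-saturated 1-AMA in PBS, compounds were pin-transferred, plates stood 10 min at room temperature, fluorescence was read at 380/535 nm, and curves were fitted with a Hill equation.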
RGS4 inh = inhibitors of human regulator of G protein signaling 4; 390,000 tested, 0.039% active; Transcreener GDP fluorescence polarization, RGS4-accelerated GTP hydrolysis; P49798; Potency, µM (top dose mostly 114 µM), inactives show at the highest dose activity change, negative = inhibition, most hits filed as inhibitors; also: potency is read from the fitted curve at half-maximal effect; % is scaled to controls: 0 for no effect and ±100 for the full control effect; nearly all actives have a fitted effect of over 75% in size; some results filed as inactive show a strong effect at the top dose
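MLSMR compounds (23 nl, pin-transferred) preincubated 10 min at room temperature with a 500nM (2x) first reagent, then RGS4 at 900nM (2x) plus Transcreener GDP mix added; fluorescence polarization (620/688 nm) read before and after 90 min at 30 °C.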
An asterisk follows results filed as active; ? = inconclusive; . = not tested or not shown; & = joins results of further samples; [ ] = remark or other dose. Unless noted, calls follow the shape of the dose curve; as a rule, active = well fitted curve in the direction sought with a large enough effect; inconclusive = small, poorly fitted or top-dose-only effect, or another doubt; inactive = no such curve, though single readings can be large; an effect the other way counts as inactive or inconclusive. This is a subset (hit frequency here may not be typical).

Under each structure: Apoferritin bind | ERG Ets-DNA blk | LDHA inh | RGS4 inh | ALOX12 inh
- Cc1ccc(N=Cc2c(O)[nH]c3ccccc23)c([N+](=O)[O-])c1
 : -8.1% | -3.1% | -1.2 | -20.7% | -4.5%
- CCN(CC)C(=O)CSc1ncnc2c(-c3cccs3)nsc12
 : -10.8% | -0.3% | -5.2 | -5.2% | -19.8%
- CN(CC(=O)Nc1cccc(F)c1)C(=O)c1cc(-c2ccco2)nc2ccccc12
 : . | -1.4% | -8.6 | 1.4% | 39.8µM*
- Cc1cc(C)c2nc(C)cc(N/N=C/c3ccc(O)cc3)c2c1
 : -13.8% | 4.6% | -2.6 | -39.1%[56.9 µM] | ?
- CCCCN(C(=O)c1cccc(-n2cccc2)c1)c1c(N)n(CCCC)c(=O)[nH]c1=O
 : . | 4.6% | -5.6 | -8.1% | ?
- Cc1ccc(S(=O)(=O)Cc2ccc(C(=O)O)o2)cc1
 : -7.1% | . | 1.9 | -29.9% | ?
- COc1ccc(NC(=O)/C(C#N)=C\c2ccc(Br)o2)cc1
 : -8.8% | 30.2%[activator] | 1.3 | -17.3% | -22.4%
- CC(=O)Oc1ccc(CC(C(=O)O)N2C(=O)c3ccccc3C2=O)cc1 (centres undefined)
 : -9.6% | -16.5% | -8.1 | -10.0% | 4.3%
- COc1ccc(OC)c(NC(=O)CSc2sc3c(O)cc(=O)[nH]c3c2C#N)c1
 : -12.4% | 2.6% | 8.5 | -41.9% | -19.8%
- O=C(Cc1cccs1)Nc1ccc(S(=O)(=O)Nc2ncccn2)cc1
 : -4.7% | -1.1% | 0.2 | -49.0% | 213.4%[activator]
- NC(=O)COc1ccc(-n2cnnn2)cc1
 : 1.6% | -8.1% | 3.6 | -18.6% | -7.3%
- O=C(O)CCCC[C@@H]1CCSS1
 : 5.3% | . | . | 1.3%[56.9 µM] | 4.4%
- Cc1nc(S/C(=C/c2ccc(OCc3ccc(C(=O)O)cc3)cc2)C(=O)O)n[nH]1
 : -0.6% | 2.6% | 0.0 | -13.9% | -10.7%
- O=C(Cc1ccc(S(=O)(=O)N2CCOCC2)s1)Nc1nc2c(s1)CCCC2
 : -13.1% | 1.0% | 2.4 | ? | 47.7%[activator]
- COc1ccc(OC)c(NC(=O)CSc2ncnc3sc(C)cc23)c1
 : . | 0.0% | -5.7 | -43.7% | -18.8%
- Cc1ccc(NC(=O)CN2C(=O)N/C(=C/c3cccn3-c3ccc(C(=O)O)cc3)C2=O)cc1
 : 28.0% | -5.6% | -30.3* | -21.7% | ?
- O=C(c1cc(-c2ccco2)nc2ccccc12)N1CCCC(C(F)(F)F)C1 (centres undefined)
 : . | 4.2% | 0.4 | ? | 1.9%
- COc1cc(NC(=O)c2ccccc2)c(OC)cc1NC(=O)Cc1cccs1
 : -11.7% | 5.8% | 3.9 | -10.9% | ?
- O=C(O)[C@@H](O)c1ccccc1
 : -8.1% | 6.2% | -4.2 | -6.2% | -5.4%
- O=C(CSc1nccc(=O)[nH]1)NCc1ccco1
 : 7.9% | 6.3% | -0.4 | -18.0% | -19.3%
- O=C(COC(=O)/C=C/c1ccco1)NCc1ccco1
 : 1.3% | -3.7% | 0.5 | -29.3%[56.9 µM] | -18.3%
- CC(=O)Nc1ccc(S(=O)(=O)Nc2nc3ccccc3nc2Nc2ccc(C(=O)O)c(O)c2)cc1
 : . | -2.8% | 20.0 | -9.6% | ?
- CN(c1ccccc1)S(=O)(=O)c1ccc(Cl)c(C(=O)OCC(=O)NCc2ccco2)c1
 : -16.0% | 6.3% | -1.5 | -38.4% | -0.8%
- O=C(NNC(=O)c1ccccc1F)c1cccc(-n2cccc2)c1
 : . | -6.4% | -7.9 | -23.3% | -37.2%
- O=C(COC(=O)c1cccs1)NCc1ccco1
 : -12.7% | 1.6% | -5.6 | -10.4% | 425.1%[activator]
- CC1=NOC(=O)/C1=C\c1ccc(-c2ccc(Cl)c(C(=O)O)c2)o1
 : -8.5% | 23.4% | 26.4 | ? | ?
- O=C(NNC(=O)c1cc2cc3ccccc3nc2s1)c1cccc(Cl)c1
 : -7.0% | -2.1% | -51.4* | 5.7% | 0.0%
- N[C@@H](Cc1ccc(O)c(O)c1)C(=O)O
 : 6.7%[29.3 µM] | 3.9% | 7.8 | -15.4%[56.9 µM] | ?
- Cc1ccccc1NC(=O)CN1C(=O)N/C(=C\c2ccccc2OCc2ccc(C(=O)O)cc2)C1=O
 : -10.9% | -2.8% | -8.2 | ? | -13.2%
- Cc1ccc(-c2cc(C(=O)Nc3ccccn3)c3ccccc3n2)o1
 : 2.9% | 3.8% | 0.2&0.9 | ? | 6.31µM*
- COc1ccc(C[C@H](C)NC[C@@H](O)c2ccc(O)c(NC=O)c2)cc1
 : . | 15.9% | -0.9 | 14.7% | -15.8%&28.5%

16 of the compounds above, tab-delimited.
mol	Apoferritin bind	ERG Ets-DNA blk	LDHA inh	RGS4 inh	ALOX12 inh
Cc1ccc(N=Cc2c(O)[nH]c3ccccc23)c([N+](=O)[O-])c1	-8.1%	-3.1%	-1.2	-20.7%	-4.5%
CCN(CC)C(=O)CSc1ncnc2c(-c3cccs3)nsc12	-10.8%	-0.3%	-5.2	-5.2%	-19.8%
CN(CC(=O)Nc1cccc(F)c1)C(=O)c1cc(-c2ccco2)nc2ccccc12	.	-1.4%	-8.6	1.4%	39.8µM*
Cc1cc(C)c2nc(C)cc(N/N=C/c3ccc(O)cc3)c2c1	-13.8%	4.6%	-2.6	-39.1%[56.9 µM]	?
CCCCN(C(=O)c1cccc(-n2cccc2)c1)c1c(N)n(CCCC)c(=O)[nH]c1=O	.	4.6%	-5.6	-8.1%	?
Cc1ccc(S(=O)(=O)Cc2ccc(C(=O)O)o2)cc1	-7.1%	.	1.9	-29.9%	?
COc1ccc(NC(=O)/C(C#N)=C\c2ccc(Br)o2)cc1	-8.8%	30.2%[activator]	1.3	-17.3%	-22.4%
CC(=O)Oc1ccc(CC(C(=O)O)N2C(=O)c3ccccc3C2=O)cc1 (centres undefined)	-9.6%	-16.5%	-8.1	-10.0%	4.3%
COc1ccc(OC)c(NC(=O)CSc2sc3c(O)cc(=O)[nH]c3c2C#N)c1	-12.4%	2.6%	8.5	-41.9%	-19.8%
O=C(Cc1cccs1)Nc1ccc(S(=O)(=O)Nc2ncccn2)cc1	-4.7%	-1.1%	0.2	-49.0%	213.4%[activator]
NC(=O)COc1ccc(-n2cnnn2)cc1	1.6%	-8.1%	3.6	-18.6%	-7.3%
O=C(O)CCCC[C@@H]1CCSS1	5.3%	.	.	1.3%[56.9 µM]	4.4%
Cc1nc(S/C(=C/c2ccc(OCc3ccc(C(=O)O)cc3)cc2)C(=O)O)n[nH]1	-0.6%	2.6%	0.0	-13.9%	-10.7%
O=C(Cc1ccc(S(=O)(=O)N2CCOCC2)s1)Nc1nc2c(s1)CCCC2	-13.1%	1.0%	2.4	?	47.7%[activator]
COc1ccc(OC)c(NC(=O)CSc2ncnc3sc(C)cc23)c1	.	0.0%	-5.7	-43.7%	-18.8%
Cc1ccc(NC(=O)CN2C(=O)N/C(=C/c3cccn3-c3ccc(C(=O)O)cc3)C2=O)cc1	28.0%	-5.6%	-30.3*	-21.7%	?

Part of the list above, with the structure last.
| Apoferritin bind | ERG Ets-DNA blk | LDHA inh | RGS4 inh | ALOX12 inh | Compound |
| --- | --- | --- | --- | --- | --- |
| -10.8% | -0.3% | -5.2 | -5.2% | -19.8% | CCN(CC)C(=O)CSc1ncnc2c(-c3cccs3)nsc12 |
| -9.6% | -16.5% | -8.1 | -10.0% | 4.3% | CC(=O)Oc1ccc(CC(C(=O)O)N2C(=O)c3ccccc3C2=O)cc1 (centres undefined) |

Compound activity deposited in PubChem BioAssay by National Center for Advancing Translational Sciences (NCATS).
